Tg IFNy HTS: inhibitors of Toxoplasma gondii growth with IFN-gamma; Toxoplasma gondii growth in IFN-gamma-treated host cells; active compounds read low; reference of the scale not given here; activity change, negative = inhibition, %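 (about 20 µM by stock and volumes)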; 69,000 tested, 3.8% active; AID 1259416;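 active = below -70%; inconclusive = fit judged invalid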;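 also: host cells are HeLa cells infected with Toxoplasma gondii; parasite growth read as luciferase light; one replicate is shown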
Starred values were filed as active, the others as inactive; & = joins results of further samples.

CC(=O)OC(C(=O)NCCc1ccccc1)c1cccnc1 (stereo unspecified) was read as Tg IFNy HTS inconclusive.
`C[C@H]1CN([C@@H](C)CO)C(=O)CCCn2nncc2CO[C@@H]1CN(C)C(=O)Nc1cccc(Oc2ccccn2)c1` gave Tg IFNy HTS inactive.
`CCN1CCCC1CNC(=O)C(C)n1c2ccccc2c2cnn(C)c(=O)c21` (stereo unspecified) gave Tg IFNy HTS 190.
`Cc1ccc(-c2coc(-c3ccc(NC(=O)c4ccc(Br)o4)cc3)n2)c(C)c1` gave Tg IFNy HTS -25.
`CN1C(=O)c2cc(NC(=O)Cc3cccs3)ccc2OC[C@H]2O[C@@H](CC(=O)NCCCN3CCOCC3)CC[C@H]21` gave Tg IFNy HTS 1.
Screening Cc1nc(-c2ccc(F)cc2)sc1-c1ccc(SCc2ccc(Cl)c(Cl)c2)nn1 returned Tg IFNy HTS 0.
`NCC1CCN(Cc2ccc(C#CCO)cc2)C1` (stereo unspecified) gave Tg IFNy HTS -3.
For COC[C@]12CCC[C@@H]1CN(S(=O)(=O)c1cccc(OC)c1)C2 the results were Tg IFNy HTS -24.
Brc1ccc(-c2nnc(-c3ccccc3)n2-c2ccccc2)cc1 was read as Tg IFNy HTS -6.
CCn1c(=O)c2ccccc2n(CC(=O)NC(C)C)c1=O was read as Tg IFNy HTS 129.
For Cc1nonc1OCC(C)(N)COc1nonc1C the results were Tg IFNy HTS -9.
Screening COC(=O)c1cc2n(n1)CCN(C(=O)c1cnnn1-c1ccccc1)C2 returned Tg IFNy HTS -1.
Screening COC(=O)c1cc(OC)c(OC)cc1NC(=O)CN1C(=O)c2ccccc2C1=O returned Tg IFNy HTS 21.
For O=C1CC2(CCN(C(=O)c3ccc4cccc(Cl)c4n3)CC2)CN1 the results were Tg IFNy HTS 9.
CC(=O)N1[C@@H](CO)[C@@H](c2ccc(-c3ccc(C#N)cc3)cc2)C12CN(C(=O)C1CC1)C2 was read as Tg IFNy HTS 92.
CCC(=O)N1CCc2cc(C(=O)O)c(-c3ccncc3)nc2CC1 was read as Tg IFNy HTS -6.
For c1ccc(-c2ccc(CN3CCCC(OCc4cccnc4)C3)cc2)nc1 (stereo unspecified) the results were Tg IFNy HTS -6.
For Cc1oc(-c2cccc(Cl)c2)nc1Cn1nnc(C(=O)Nc2ccccc2)c1C the results were Tg IFNy HTS 49.
O=C(Oc1ccccc1)Oc1ccc2c(c1)oc(=O)c1ccccc12 was read as Tg IFNy HTS -9.
For COC(=O)c1nn(-c2ccc(OC)cc2)c(=O)c2c(NC(C)=O)sc(C)c12 the results were Tg IFNy HTS -36.
Cc1ccc(N2C(=O)CC3(CCN=N3)C2=O)cc1Cl (stereo unspecified) was read as Tg IFNy HTS 15.
For CN(C)CC1(O)CCCN(S(=O)(=O)N(C)Cc2ccccc2)CC1 (stereo unspecified) the results were Tg IFNy HTS -78*.
For O=C(CCCN1C(=O)c2cccc3cccc(c23)C1=O)N1CCc2ccccc2C1 the results were Tg IFNy HTS 18.
`CC(=O)N/C(=C/c1ccc2c(c1)OCO2)C(=O)NCCO` gave Tg IFNy HTS 37.
For O=C(O)CNC(=O)CNS(=O)(=O)c1ccccc1 the results were Tg IFNy HTS -2.
COC(=O)c1c(NCCCc2ccccc2)c2cc(F)ccc2[nH]c1=O was read as Tg IFNy HTS -65.
COc1ccc(-c2nc(NCCCN3CCCC3)c3ccccc3n2)cc1 was read as Tg IFNy HTS -52.
`O=C(NCC1(O)CCCNCC1)c1ccccc1-c1ccccc1` (stereo unspecified) gave Tg IFNy HTS -6.
CC1C(c2ccccc2)N(C)C(c2ccccc2)CC1(O)Cc1ccccc1 (stereo unspecified) was read as Tg IFNy HTS -85*.
`O=C(C[C@@H]1C=C[C@@H](NC(=O)Nc2cccc(F)c2)[C@H](CO)O1)NCC1CCCCC1` gave Tg IFNy HTS 2.
O=C(C[C@]12COC[C@H]1CN(Cc1cccc(F)c1)C2)N1CCOCC1 was read as Tg IFNy HTS 11.
CNC(=O)N1C[C@H]2C[C@@H]3[C@@](C1)(CN(C)S3(=O)=O)O2 was read as Tg IFNy HTS -45.
`CCOC(=O)CCSc1nc(C(C)(C)C)cc(C(F)(F)F)c1C#N` gave Tg IFNy HTS 57.
`OC[C@@H](O)C(O)[C@@H](O)CO` (stereo partly specified) gave Tg IFNy HTS 18.
`C/C=C/c1ccc(C2[C@H]3CNC[C@@H]2N3Cc2cc(F)ccc2F)cc1` (stereo partly specified) gave Tg IFNy HTS -53&-13.
`OC[C@@H]1Nc2ccc(C#Cc3ccc(F)cc3)cc2[C@@H]2[C@H]1CCN2Cc1ccc2c(c1)OCO2` gave Tg IFNy HTS -62.
For Cc1cc(C)nc(NC(=O)C(C)N2C(=O)c3ccccc3C2=O)n1 (stereo unspecified) the results were Tg IFNy HTS 34.
Screening O=C(Nc1ccccc1)c1c(O)c2ccccc2[nH]c1=O returned Tg IFNy HTS 189.
`CN1CCCCC1C1CCN(C(=O)Cn2nnc3ccccc32)CC1` (stereo unspecified) gave Tg IFNy HTS -24.
Screening c1ccc(-c2ccc3nc(C4CCN(CC5CC5)CC4)nn3c2)cc1 returned Tg IFNy HTS -9.
O=C(NCCN1CCCC1)[C@@H]1[C@@H](CO)[C@@H]2Cn3c(cccc3=O)[C@@H]2N1Cc1ccccn1 was read as Tg IFNy HTS 6.
For CC(C)Oc1ccc(-c2noc(-c3c(O)c4ccccc4[nH]c3=O)n2)cc1 the results were Tg IFNy HTS 48.
Clc1ccc(-c2cc(-c3csc(Nc4ccccc4Cl)n3)on2)c(Cl)c1 was read as Tg IFNy HTS -66.
`O=C(CN1CCOCC1)N1CC[C@@H]2[C@H](CO)Nc3ccc(-c4ccccc4F)cc3[C@@H]21` gave Tg IFNy HTS -48.
Screening Cc1cc(C)n(CCNC(=O)CC2C(=O)NCCN2C(C)C)c(=O)n1 (stereo unspecified) returned Tg IFNy HTS 0.
`CC1CCN(CC(C)(C)NC(=O)c2cc(-c3ccncc3)c3cnccc3n2)CC1` gave Tg IFNy HTS -14.
Screening CCCC#Cc1ccc([C@H]2[C@@H](CO)N(C(=O)NC(C)C)[C@H]2CNC(C)=O)cc1 returned Tg IFNy HTS 17.
`O=C(Nc1ccc2c3c(cccc13)CC2)c1nc(-n2cnnc2)n[nH]1` gave Tg IFNy HTS -80*.
`Cc1ccsc1C(CNC(=O)c1cnc2ccccn2c1=O)N(C)C` (stereo unspecified) gave Tg IFNy HTS 41.
Screening Cc1nc(-c2ccc(Cl)cc2)sc1CCNC(=O)c1ccc(C(C)(C)C)cc1 returned Tg IFNy HTS -66.
For COc1cc(C2Nc3ccccc3NC3=C2C(=O)CC(c2ccc(OC)c(OC)c2)C3)ccc1O (stereo unspecified) the results were Tg IFNy HTS 31.
CC[C@H]1N(S(=O)(=O)c2cn(C)cn2)CCC[C@@]12CCC(=O)N2C was read as Tg IFNy HTS -40.
For COc1ccc(NC(=O)N2C[C@@H]3N[C@H](C2)C3c2ccc(-c3ccncc3)cc2)cc1 (stereo partly specified) the results were Tg IFNy HTS -3.
COCc1nnc(C(=O)N2CCN(c3cccc(C)n3)CC2)o1 was read as Tg IFNy HTS 0.
`Cc1cnn(-c2cc(-c3ccccc3CO)ncn2)c1` gave Tg IFNy HTS 59.
Cc1ccc(-c2coc(-c3ccc(NC(=O)Nc4ccccc4Cl)cc3)n2)cc1 was read as Tg IFNy HTS 66.
CCN1c2cc(C)ccc2-n2cccc2C12CCN(C(=O)Nc1cc(OC)ccc1OC)CC2 was read as Tg IFNy HTS -111*.
`CC1=C(C)CC2C(=O)N(c3ccc4c(c3)OCO4)C(=O)C2C1` (stereo unspecified) gave Tg IFNy HTS 31.
Screening Clc1ccc(-c2nnn(CC3CCNC3)n2)cc1 (stereo unspecified) returned Tg IFNy HTS -32.
`Cc1cccc(S(=O)(=O)N2CCc3nc(-c4ccccc4)sc3C2)c1` gave Tg IFNy HTS -9.

Of the compounds above, three have a thiophene ring, fused or not.
`CN1C(=O)c2cc(NC(=O)Cc3cccs3)ccc2OC[C@H]2O[C@@H](CC(=O)NCCCN3CCOCC3)CC[C@H]21` gave Tg IFNy HTS 1.
For COC(=O)c1nn(-c2ccc(OC)cc2)c(=O)c2c(NC(C)=O)sc(C)c12 the results were Tg IFNy HTS -36.
`Cc1ccsc1C(CNC(=O)c1cnc2ccccn2c1=O)N(C)C` (stereo unspecified) gave Tg IFNy HTS 41.

Next structures.
For CN(C)C(=O)c1cnc2n1CCN(Cc1nccn1C)C2 the results were Tg IFNy HTS -3.
COCCN1CCCC(O)(CN2CCN(c3nc(C)cc(C)n3)CC2)C1=O (stereo unspecified) was read as Tg IFNy HTS 1.
`O=C(CC1N=C2c3ccccc3N=C(SCc3ccccc3Cl)N2C1=O)NCc1ccco1` (stereo unspecified) gave Tg IFNy HTS -51.
For Oc1ccc(Cl)cc1C1=NC2(CCNCC2)NC(c2ccccc2O)C1 (stereo unspecified) the results were Tg IFNy HTS -102*.
CC(C)(C)c1ccc(NC(=S)Nc2ccccn2)cc1 was read as Tg IFNy HTS -55.
CC(=O)N1CCC2(CC1)CC(NCc1ccc(C)s1)c1ccccc1O2 (stereo unspecified) was read as Tg IFNy HTS -5.
For CC(C)n1cnnc1CN(C)C(=O)c1cccc(C#CC(C)(C)O)c1 the results were Tg IFNy HTS 9.
`Cc1nnsc1CN(C)Cc1cc(C(C)(C)C)ccc1O` gave Tg IFNy HTS inconclusive.
Cc1nn(C)c2[nH]c3c(c(=O)c12)CSC3 was read as Tg IFNy HTS 129.
For CCN1C(=O)CCc2cc(NC(=O)Cc3ccccc3Cl)ccc21 the results were Tg IFNy HTS 7.
CCc1ccc(CN2CCOC(CCNS(C)(=O)=O)C2)nc1 (stereo unspecified) was read as Tg IFNy HTS 1.
C=C(C)[C@@H]1CC=C(CN2CCC(N3CCC(C(=O)N4CCCC4)CC3)CC2)CC1 was read as Tg IFNy HTS -19.
C[C@@H]1CCCCO[C@H](CN(C)Cc2ccncc2)[C@H](C)CN([C@@H](C)CO)C(=O)c2cc(NC(=O)Cc3ccccc3)ccc2O1 was read as Tg IFNy HTS -21.
`Cn1c(=O)cc(C(=O)NC(Cc2ccsc2)c2nccs2)[nH]c1=O` (stereo unspecified) gave Tg IFNy HTS -5.
COc1ccc2c(c1)NC1(CCN(C(=O)c3cc(OC)c(OC)c(OC)c3)CC1)c1cccn1-2 was read as Tg IFNy HTS 34.
For CC1=C(C(=O)NC2CCN(Cc3ccccc3)CC2)C2(CCCCC2)OC1=O the results were Tg IFNy HTS -15.
`Cc1noc(C)c1NC(=O)Nc1ccc2c(c1)C(=O)N(C)[C@H]1CC[C@@H](CC(=O)N[C@@H]3CCN(Cc4ccccc4)C3)O[C@H]1CO2` gave Tg IFNy HTS 20.
Screening O=C(CC(F)(F)F)N1CCc2ncnc(C3CC3)c2CC1 returned Tg IFNy HTS 1.
Screening CCc1cn[nH]c1C1CCCN(C(=O)c2cc(C(C)C)n3ncnc3n2)C1 (stereo unspecified) returned Tg IFNy HTS 3.
Screening CC(=O)Nc1ccccc1OCC(O)CS(=O)(=O)c1ccc(C(F)(F)F)cn1 (stereo unspecified) returned Tg IFNy HTS 18.

Reprinted at random: 3 compounds from above, in no set order.
C=C(C)[C@@H]1CC=C(CN2CCC(N3CCC(C(=O)N4CCCC4)CC3)CC2)CC1 was read as Tg IFNy HTS -19.
For CCN1C(=O)CCc2cc(NC(=O)Cc3ccccc3Cl)ccc21 the results were Tg IFNy HTS 7.
C[C@@H]1CCCCO[C@H](CN(C)Cc2ccncc2)[C@H](C)CN([C@@H](C)CO)C(=O)c2cc(NC(=O)Cc3ccccc3)ccc2O1 was read as Tg IFNy HTS -21.

A draw from above in order of heavy-atom count, falling:
COc1ccc2c(c1)NC1(CCN(C(=O)c3cc(OC)c(OC)c(OC)c3)CC1)c1cccn1-2 was read as Tg IFNy HTS 34.
For Oc1ccc(Cl)cc1C1=NC2(CCNCC2)NC(c2ccccc2O)C1 (stereo unspecified) the results were Tg IFNy HTS -102*.
`Cc1nnsc1CN(C)Cc1cc(C(C)(C)C)ccc1O` gave Tg IFNy HTS inconclusive.

Filtered by structure: the compounds so far with a COOH group
CCC(=O)N1CCc2cc(C(=O)O)c(-c3ccncc3)nc2CC1 was read as Tg IFNy HTS -6.
For O=C(O)CNC(=O)CNS(=O)(=O)c1ccccc1 the results were Tg IFNy HTS -2.

Continuation.
For CC(C)[C@@H]1CC=CC[C@H](C)Oc2ccccc2C(=O)N(C)[C@@H](Cc2ccccc2)C(=O)N1 (mixture of isomers) the results were Tg IFNy HTS -41.
Cc1ccccc1-c1ncc(CN(C)Cc2cccc3ncccc23)cn1 was read as Tg IFNy HTS -89*.
For S=C(NCCc1ccccn1)NC1CC2CCC1C2 (stereo unspecified) the results were Tg IFNy HTS 62.
`COc1ccc(OC)c(C(O)CN2CCN(C(=O)c3ccccc3F)CC2)c1` (stereo unspecified) gave Tg IFNy HTS 36.
For CN1CCC2(CN(c3ncccn3)CC23CCN(Cc2ccccn2)CC3)C1=O (stereo unspecified) the results were Tg IFNy HTS 5.
For Cn1ncc2c(NCCN3CCCCC3CO)nc(C(C)(C)C)nc21 (stereo unspecified) the results were Tg IFNy HTS 4.
`COCCN1CCOCC2(CCCN(C(=O)c3ccn(C)n3)C2)C1` (stereo unspecified) gave Tg IFNy HTS 1.
O=C(c1cnc2ccccn2c1=O)N1CC(=O)N(C2CCCCC2)CC(OCc2ccccc2)C1 (stereo unspecified) was read as Tg IFNy HTS -46.
Screening COc1ccc(-n2c(=O)c(C(=O)Nc3cc(C)ccc3F)c(O)c3cccnc32)cc1 returned Tg IFNy HTS 198.
Fc1ccccc1-c1ccc(C2[C@@H]3CN(Cc4ccccn4)C[C@H]2N3)cc1 (stereo partly specified) was read as Tg IFNy HTS -34&-46.
For Cc1cc(C)nc(SCc2ccc(C(=O)Nc3nccs3)cc2)n1 the results were Tg IFNy HTS -88*.

Screening results deposited in PubChem by Broad Institute.

A portion of the library. The share of hits here may be higher or lower than overall.
